Compound activity from PubChem BioAssay.
2A firefly – Primary qHTS Assay for Foot and Mouth Disease Virus Antivirals against NCGC Sytravon and CBC Compound Libraries: Firefly Luciferase Signal. Potency, µM (titrated, usually from 57.5 µM), inactives show at the highest dose signal change, negative = less light. HEK cells with a luciferase reporter of 2A StopGo recoding. 0.23% of 120,000 active. AID 1745856, 2022; active = well fitted falling curve with a large enough effect; inconclusive = small, poorly fitted or top-dose-only effect; inactive = no such curve, though single readings can be large or run the other way; note: nearly all actives have a fitted effect of over 60% in size; overnight with compound
StopGo RLuc – Primary qHTS Assay for Foot and Mouth Disease Virus Antivirals against NCGC Sytravon and CBC Compound Libraries: Renilla Luciferase Signal. HEK cells with a luciferase reporter of 2A StopGo recoding. Potency, µM (doses to about 57.5 µM), inactives show top-dose signal change, negative = less light. 0.32% of 120,000 active; active means well fitted falling curve with a large enough effect; inconclusive means small, poorly fitted or top-dose-only effect; inactive means no such curve, though single readings can be large or run the other way; note: nearly all actives have a fitted effect of over 55% in size; overnight with compound
An asterisk follows results filed as active; ? = inconclusive; [ ] = remark or other dose. % is set by controls: 0 for no effect and ±100 for the full control effect; potency is the fitted concentration of half-maximal effect. Hits appear at their usual frequency; 0.55% or so of the library scored in one or more.

Order of values: 2A firefly, StopGo RLuc
O=C(c1nn(-c2ccccc2)c(=O)c2ccccc12)N1CCN(Cc2ccc3c(c2)OCO3)CC1
  20%, 6%
COc1cccc(NC(=O)c2sc3nc(C)c(C(=O)Nc4ccc(C)cc4C)c(-c4sccc4C)c3c2N)c1
  29%, 6%
CN(C)S(=O)(=O)c1ccc(NC(=O)CCc2ncc(-c3ccc(F)cc3F)o2)cc1
  29%, 28%
COc1ccc(CCC(=O)NCc2ccc3c(c2)CCN3C(=O)c2ccc(C)cc2)cc1
  -2%, 15%
CCc1ccc(CNC(=O)c2ccc(-c3nc(CS(=O)(=O)c4ccccc4)c(C)o3)cc2)cc1
  -9%, -11%
COc1cc(OC)cc(C(=O)NCC(=O)O)c1
  -4%, 0%
Cc1cc(C)c2c(=O)cc(C(=O)N3CCN(c4cccc(Cl)c4)CC3)oc2c1
  0%, 0%
COc1cccc(CNC(=O)CN(C)S(=O)(=O)c2ccc3c(c2)c(=O)n(C)c(=O)n3C)c1
  14%, 3%
Cn1c(=O)c2c(ncn2CC(=O)OCc2ccc(C(C)(C)C)cc2)n(C)c1=O
  -8%, -14%
CCc1ccccc1NC(=O)CCS(=O)(=O)c1ccc2c(c1)CCN2C(=O)C1CC1
  -1%, 4%
COCCCNc1oc(-c2ccccc2Cl)nc1C#N
  138%[activator], 0%
COc1ccccc1-c1nn2c(CN3CCCCC3)nnc2s1
  11%, 23%
Cc1[nH]c2nc3ccccc3n2c(=O)c1Cc1ccccc1Cl
  -4%, -2%
COc1ccccc1NC(=O)N(Cc1nnc2n1CCCCC2)c1ccc(F)cc1
  6%, 13%
CNC(=O)NC(=O)C(C)Nc1cccc(Cl)c1C (stereo not given)
  8%, -3%
COc1ccc(NC(=O)c2ccc3c(=O)n4nc(Nc5ccccc5C)sc4nc3c2)cc1Cl
  -10%, -5%
O=C(Cn1c(=O)c2cccn2c2cccnc21)NCc1cccc(F)c1
  -11%, 4%
C(=C\c1ccccc1)/C1=NO[C@@H]2[C@H]3CC[C@H](C3)[C@H]12
  138%[activator], 11%
CCc1nnc(SCC(=O)N(CC)c2ccccc2)c2cc3oc(C)cc3n12
  -9%, -6%
COc1cc(OC)nc(O[C@H](C(=O)O)C(OC)(c2ccccc2)c2ccccc2)n1
  -4%[11.5 µM], -11%
CCCC(C)NC(=O)COc1cc2oc(=O)cc(-c3ccccc3)c2cc1Cl (stereo not given)
  -11%, -6%
Cc1ccc(Sc2c(C)nn(C(C)(C)C)c2OC(=O)C(C)(C)C)cc1
  -14%, -5%
Cc1cccc(N2CCN(c3ccc(NC(=O)c4ccccc4)cc3C(=O)O)CC2C)c1 (stereo not given)
  -9%, -4%
CC(C)CCNC(=O)C12CC3CC(C1)CC(c1ccccc1)(C3)C2
  -20%, -6%
O=C(NCc1ccccc1)C(=O)Nc1ccc2cc[nH]c2c1
  72%[activator], 5%
CCC1CCC(C(=O)Nc2ccc(Br)cc2)CC1 (stereo not given)
  122%[activator], 14%
CCc1ccc(CNC(=O)Cn2ccc3cc(S(=O)(=O)N4CCCCCC4)ccc32)cc1
  5%, 0%
COc1ccccc1CNc1cc(-c2ccccc2)nc2nncn12
  ?, ?
CCc1ccc(S(=O)(=O)c2cn(CC(=O)Nc3ccc(F)c(Cl)c3)c3ccccc3c2=O)cc1
  -15%, 9%
CCc1c(C(=O)Nc2ccc(C)cc2)cnn1-c1ccc(OC)nn1
  150%[activator], -10%
COc1ccccc1Nc1sc(C(=O)c2ccc(F)cc2)c(N)c1S(=O)(=O)c1ccc(C)cc1
  -2%, 13%
CN(C)CCNC(=O)c1ccc2nc(Cc3ccccc3)oc2c1
  28%, -10%
O=C(c1ccc(Cl)cc1)C(CN1CCCCCC1)c1ccccc1 (stereo not given)
  58%[activator], 10%
CCOCCCn1c(=N)c(C(=O)NCc2cccnc2)cc2c(=O)n3ccccc3nc21
  -3%, -4%
Nc1nccnc1C(=O)NCC(=O)NC1CC1
  5%, 9%
CCCCCCCOc1ccc(C(=O)Oc2cncc(Cl)c2)cc1
  15%, 5%
Cc1cccc(Cn2c(SCCc3ccccc3)nc3c2c(=O)[nH]c(=O)n3C)c1
  -1%, -13%
O=C(Nc1ccc2oc(-c3ccccc3F)cc(=O)c2c1)c1ccccc1Br
  232%[activator], 36%[activator]
Cc1nc2ccc(S(=O)(=O)NC(CC(C)C)C(=O)NCc3ccc(Cl)cc3)cc2s1 (stereo not given)
  -3%, 78%[activator]
N#CC1(NC(=O)CSc2nccn2C2CC2)CCCCC1
  1%, -10%

Taken from above:
For StopGo RLuc, Cc1cccc(N2CCN(c3ccc(NC(=O)c4ccccc4)cc3C(=O)O)CC2C)c1 (stereo not given) shows -4%
For 2A firefly, CCc1ccc(CNC(=O)Cn2ccc3cc(S(=O)(=O)N4CCCCCC4)ccc32)cc1 shows 5%

Remaining list, next part
Order of values: 2A firefly, StopGo RLuc
CC(=O)c1cc(C)cc(C)c1O
  17%, 6%
Fc1ccc(-c2ccn[nH]2)cc1
  0%, 8%
Cc1cccc2c1NC(=O)C21CC(=O)Nc2c1sc(C(=O)O)c2-c1ccccc1 (stereo not given)
  -8%, -11%
O=C(c1cc(F)cc(F)c1)N1CCOc2ccccc21
  -11%, -12%
CCOc1cc(Br)c(/C=C2/NC(=O)NC2=O)cc1OC
  2.8µM*, ?
O=C(Nc1cccc(Cl)c1)c1ccc2nc(CCc3ccccc3)oc2c1
  66%[activator], -8%
Cn1c(=O)n(Cc2ccccc2)c(=O)c2c1[nH]c(=O)n2C
  17%, -19%
C[C@H](NC(=O)OC(C)(C)C)c1nnc(SCc2ccc(Cl)cc2Cl)o1
  3%, -1%
CCOC(=O)N1CCN(C(=O)Cn2nc(-c3ccccc3)ccc2=O)CC1
  -4%, -9%
O=C(COc1ccc2c(=O)c(-c3ccc(Cl)cc3)coc2c1)N[C@H](CO)c1ccccc1
  -14%, ?
CCc1ccc2c(CN3CCN(S(=O)(=O)c4ccc5c(c4)OCCO5)CC3)cc(=O)oc2c1
  -17%, -12%
CC(=O)Nc1ccc(NS(=O)(=O)c2cc(Br)cc3c2N(C(=O)C2CC2)CC3)cc1
  -1%, 205%[activator]
Cc1ccc(Cn2nnc3c(=O)[nH]c(C4CCN(C(=O)Cc5ccccc5F)CC4)nc32)cc1
  -13%, -3%
CC1Cc2ccccc2N1S(=O)(=O)c1cc(Cl)ccc1Cl (stereo not given)
  10%, 0%
O=C(CSc1nc2nc[nH]c2c(=O)[nH]1)NCc1ccccc1
  -4%, -9%
CCc1c(C)sc2c1CCN(C(=O)Nc1ccccc1C(=O)OC)C2c1ccc(F)cc1 (stereo not given)
  -14%, 3%
Cc1ccc(Oc2c(C(F)(F)F)oc3cc(OCC(=O)NC4CCCCC4)ccc3c2=O)cc1
  -9%, ?
COc1ccccc1CCNC(=O)c1sc(NC2CC2)nc1C
  0%, 7%
CCOc1cc2sc(N3CCC(C(=O)Nc4ccc(C)cc4)CC3)nc2cc1Br
  102%[activator], 18%
CONC(=O)c1ccc(C(=O)OC)cc1
  -10%, 4%
Cc1ccccc1CN1CCC(C(=O)O)CC1
  6%, 5%
Cc1ccc(-n2ncc3c(Nc4ccc(Oc5ccccc5)cc4)ncnc32)c(C)c1
  -20%, -12%
COC(=O)CNC(=O)c1ccc(CN)cc1
  -9%, -14%
CCC1CCC(=NNC(=O)Cc2cccc3ccccc23)CC1 (stereo not given)
  11%, 12%
Cc1ccc(C(=O)NCCc2ccc(S(N)(=O)=O)cc2)cc1-n1cnc2cccnc21
  -17%, 1%
COc1ccc(C(=O)N2CCN(Cc3nc(N)c4ccccc4n3)CC2)cc1
  62%[activator], -13%
COc1ccc(C(=O)OCC(=O)c2sc3ccccc3c2C)cc1OC
  14%, 10%
CCOc1ccc(NC(=O)c2cnc3ccccn3c2=O)cc1
  63%[activator], -4%
CC(C)CCn1c(=O)c2sccc2n2c(CCCC(=O)NCc3ccc(F)cc3)nnc12
  -17%, -5%
CC(C)/C=N/Nc1ccc(S(N)(=O)=O)cc1[N+](=O)[O-]
  14%, -24%
O=C1Nc2cc(Cl)c(Cl)cc2N(O)N1c1cccc(Br)c1
  -8%, -8%
O=C(CN1CCN(c2ccc(Cl)cc2)CC1)Nc1ccc(Cl)c(C(F)(F)F)c1
  -10%, -7%
Cn1c(=O)[nH]c(=O)c2c1nc1n(-c3ccc(Cl)cc3)c(-c3ccccc3)cn21
  62%[activator], 2%
CC1CCCN(Cc2nc3c(c(=O)n(C)c(=O)n3C)n2Cc2ccc(Cl)cc2)C1 (stereo not given)
  -4%, 2%
Cc1ccc(-n2c(=O)c3ccc(C(=O)NCc4ccco4)cc3n(CC(=O)Nc3ccc(C)c(F)c3)c2=O)cc1
  -10%, 18%
Cc1ccc(C(=O)OCc2ccc(C#N)cc2)cc1
  11%, -4%
CCOC(=O)COc1c(Br)cc(/C=C2/NC(=O)NC2=O)cc1Br
  -12%, -6%
O=C(CN1C(=O)C2(SCC(=O)N2c2ccc(F)cc2)c2ccccc21)NC1CCCCC1 (stereo not given)
  -10%, -2%
Cc1cccc(OCC(=O)Nc2ccc3oc(C)nc3c2)c1
  172%[activator], 4%
Cc1ccc(C(=O)OCC(=O)N2c3ccccc3NC(=O)C2(C)C)s1
  1%, -2%
Clc1ccc(CSc2nnc([C@@H]3CCCN3)o2)c(Cl)c1
  19%, 1%
CC(=O)c1ccc(NC(=O)C(C)Sc2ccccc2C(=O)NCC(=O)C(C)(C)C)cc1 (stereo not given)
  0%, -6%
CC(CC(=O)O)c1c[nH]c2ccccc12 (stereo not given)
  -12%, -5%
NC(=O)Nc1ccc(C(=O)Nc2cccc3cccnc23)cc1
  -2%, -3%
COc1ccc(OC)c(C2C(C(=O)c3ccco3)=C(O)C(=O)N2c2nc3ccc(C)cc3s2)c1 (stereo not given)
  15%, 2%
Cc1cc(Cc2ccccc2)c(C)cn1
  0%, 20%
COc1ccc(C(CNC(=O)c2ccc(Br)o2)N2CCCCCC2)cc1 (stereo not given)
  17%, 17%
Cc1noc(-c2ccccc2NC(=O)C2CC(=O)N(c3cccc(C(F)(F)F)c3)C2)n1 (stereo not given)
  -3%, -4%
COc1ccc(CNC(=O)c2cnn(-c3ccc(OC)cc3)c2C2CCN(C(=O)OC(C)(C)C)CC2)cc1
  53%[activator], 152%[activator]
Cc1ccc(OCC(=O)Nc2ccc3nc(SCC(=O)N(C)c4ccccc4)sc3c2)cc1
  -15%, 6%
COc1ccc2cc(CN(C)Cc3c(C)noc3C)ccc2c1
  32%[activator], -11%
CC(NC(=O)CSc1nc(-c2ccccc2F)nc2cc(=O)[nH]n12)c1nc2ccccc2n1C (stereo not given)
  -9%, 1%
COc1cccc(CNC(=O)c2ncoc2-c2cccs2)c1
  123%[activator], -16%
CCCN1CCC(N(C)C(=O)Nc2ccc(F)cc2)CC1
  33%[activator], -6%
COc1ccc(S(=O)(=O)c2c(Nc3ccc(F)cc3)sc(C(=O)c3ccc4c(c3)OCO4)c2N)cc1
  -1%, -8%
CC(=O)NCCNS(=O)(=O)c1cccc2cc(C)cnc12
  -4%, 37%[activator]
CCCCCCCCCCCCCCCCC(C(=O)O)C(O)(CC(=O)O)C(=O)O (stereo not given)
  -26%, -16%
Cc1cc(SCC(=O)NN2C(=O)NC3(CCCCC3)C2=O)nc2ccccc12
  6%, -3%
Cc1ccc2c(=O)cc(C(=O)N3CCC(Cc4ccccc4)CC3)oc2c1C
  -5%, 16%
COc1ccc(C(=O)Nc2cccc(-c3cn4ccsc4n3)c2)c(OC)c1
  0%, 48%[activator]

Already shown: entries from further up.
Order of values: 2A firefly, StopGo RLuc
Clc1ccc(CSc2nnc([C@@H]3CCCN3)o2)c(Cl)c1
  19%, 1%
CC(=O)c1ccc(NC(=O)C(C)Sc2ccccc2C(=O)NCC(=O)C(C)(C)C)cc1 (stereo not given)
  0%, -6%
CC(CC(=O)O)c1c[nH]c2ccccc12 (stereo not given)
  -12%, -5%
NC(=O)Nc1ccc(C(=O)Nc2cccc3cccnc23)cc1
  -2%, -3%
COc1ccc(OC)c(C2C(C(=O)c3ccco3)=C(O)C(=O)N2c2nc3ccc(C)cc3s2)c1 (stereo not given)
  15%, 2%
Cc1cc(Cc2ccccc2)c(C)cn1
  0%, 20%

Remaining list, next part:
Order of values: 2A firefly, StopGo RLuc
Cc1ccc2nc(C)cc(C(=O)NC3CCN(C(=O)c4ccccc4)CC3)c2c1
  -8%, -8%
CC(C)[C@H](NC(=O)C1CCCCC1)C(=O)O
  1%, 7%
Cc1cccc(OCc2nc(C#N)c(NCc3cccnc3)o2)c1
  54%[activator], 30%
CC(C)[C@H](NC(=O)[C@@H](NC(=O)C1CC(=O)N(c2ccc(F)cc2)C1)C(C)C)C(=O)O (stereo not given in full)
  25%, -10%
Cc1c(CNC(C)c2ccccc2)c(C(=O)O)c(C)n1Cc1c(F)cccc1Cl (stereo not given)
  -24%, 7%
CC1CCC2(CC1)NC(=O)N(CC(=O)c1cn(CCC#N)c3ccccc13)C2=O (stereo not given)
  4%, 5%
O=C(N/N=C/c1ccsc1)c1ccncc1
  14%, 0%
COc1ccc(-n2nc(C(=O)Nc3ccc(C)cn3)c3c4ccccc4n(C)c3c2=O)cc1
  -15%, -13%
CCOC(=O)c1ccc(OCC2c3cc(OC)c(OC)cc3CCN2C(=O)c2ccc(S(=O)(=O)N3CCCC3)cc2)cc1 (stereo not given)
  -10%, 13%
